# PMP22 txn prim: Cell-based coincidence reporter assay to measure PMP22 gene transcription in S16 Pmp22-F2sN cells - Primary screen; AID 1508649, 2021; S16 Pmp22-F2sN Schwann cells (luciferase reporters placed in the Pmp22 gene), FLuc/NLuc coincidence luminescence, 24 h; Potency, µM (doses to about 57.5 µM), for inactives: at the top dose activity change, negative = inhibition, usual class: inhibitors; 43,000 tested, 2% active; active = clear falling dose curves in both reporters; inconclusive = both reporters move, but less clearly or upward; inactive = either reporter flat; the % is the NLuc reporter signal; also: % is scaled to controls: 0 for no effect and ±100 for the full control effect; some results filed as inactive show a strong effect at the top dose
#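 S16 Schwann cells carrying FLuc/NLuc coincidence reporter in the Pmp22 3' UTR treated with compound 24 h at 37C; FLuc then NLuc luminescence read sequentially by dual-luciferase reagents.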
# HTT prom inh: Primary qHTS for Identification of Small Molecule Inhibitors of Huntingtin Promoter Activity. HEK293 HTT promoter firefly luciferase reporter (activity 0% = vehicle and -100% = no light), 24 h. Potency, µM (titrated, usually from 57.5 µM), for inactives: top-dose activity change, negative = inhibition, actives largely listed as inhibitors. 48,000 tested, 0.93% active; active = well fitted inhibition curve with a large enough effect; inconclusive = small, poorly fitted or top-dose-only effect; inactive = no such curve, though single readings can be large or run the other way; also: nearly all actives have a fitted effect of over 50% in size
#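 HEK293 luciferase promoter-reporter cells (2,500/well) plated 24 h, then compounds added at up to 57.5 uM final for 24 h at 37 °C. Firefly luminescence by Dual-Glo, normalized to vehicle (0%) and zero RLU (-100%).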
# Numbers without * were called inactive; ? = inconclusive; · = no result given. Potency is read from the fitted curve at half-maximal effect.
# The first two entries, to show the layout:
# Each structure is followed by: PMP22 txn prim, HTT prom inh
Cc1ccc(C)c(N2CCN(C(=O)c3noc4c3CCCCC4)CC2)c1
  -9.6%, -27.6%
Cn1c(C(=O)NCc2cccc(F)c2)cc2cc(S(=O)(=O)N3CCCCC3)ccc21
  ?, ?

# The whole of this part, from the first entry:
# Each structure is followed by: PMP22 txn prim, HTT prom inh
Cc1ccc(C)c(N2CCN(C(=O)c3noc4c3CCCCC4)CC2)c1
  -9.6%, -27.6%
Cn1c(C(=O)NCc2cccc(F)c2)cc2cc(S(=O)(=O)N3CCCCC3)ccc21
  ?, ?
Cc1cc(NS(=O)(=O)c2ccc(NC(=O)c3ccccc3F)cc2)nc(C)n1
  19.3%, -16.1%
CCn1cc(C2N3CC4(CC)CN2CC(CC)(C3)C4=O)c2ccccc21 (centres undefined)
  9.3%, -18.3%
CC(C)(C(=O)O)c1ccc(C(O)CCCN2CCC(C(O)(c3ccccc3)c3ccccc3)CC2)cc1 (centres undefined)
  ·, 7.2%
COc1ccc(NC(=O)c2c(NC(=O)c3cccc(C)c3)sc3c2CCCC3)cc1
  -15.3%, -14.4%
COCCNC(=O)CCCn1c(=O)[nH]c2ccsc2c1=O
  -0.8%, 3.9%
CN(C(=O)CSc1nc2ccccc2n1CC(=O)N(C)c1ccc(F)cc1)c1ccccc1
  ?, -6.8%
CCc1ccc(S(=O)(=O)c2nnn3c2nc(N2CCCC(C)C2)c2cc(Cl)ccc23)cc1 (centres undefined)
  ?, 0.5%
CCOC(=O)c1ccc(NC2=CC(c3ccc(O)c(OCC)c3)N(c3ccc(C(=O)OCC)cc3)C2=O)cc1 (centres undefined)
  -15.9%, 1.8%
COc1ccc(CCNC(=O)Cn2cc(C(=O)c3ccc(F)cc3)c(=O)c3ccc(C)nc32)cc1OC
  -3.6%, 0.6%
CCN(CC)CCNC(=O)CN1C(=O)COc2ccc(S(=O)(=O)N3CCOCC3)cc21
  -12.1%, -7.1%
COc1ccc(-c2ccc(CNCCCSc3nnnn3C)o2)cc1Cl
  -14.4%, -15.8%
COc1ccccc1-c1nc2c(c(SCc3cccc(Cl)c3)n1)Cc1c(CO)cnc(C)c1O2
  ?, ?
Cc1ccc(NC(=O)Cn2ccn(-c3ccccc3)c(=O)c2=O)cc1
  15.3%, -5.7%
COc1ccc(-n2nc(C(=O)N3CCN(c4cccc(C)c4)C(C)C3)c3c4ccccc4n(C)c3c2=O)cc1Cl (centres undefined)
  -6.2%, -9.9%
CCCCN(C)c1ncnc2c1cnn2-c1cccc(Cl)c1
  1.6%, 16.4%
CC(C)(C)C(=O)Nc1ccc(Cl)c(-c2nc3ccccc3[nH]2)c1
  -3.9%, -9.8%
O=c1c(S(=O)(=O)c2ccccc2)cn(Cc2cccc(F)c2)c2cc(N3CCOCC3)c(F)cc12
  ?, ?
CS(=O)(=O)c1ncc(Cl)c(C(=O)Nc2c(C(=O)c3ccc(Cl)cc3)oc3ccccc23)n1
  -18.4%, -13.3%
Cc1cccc(-c2nc3scc(CCNS(=O)(=O)c4ccc(F)cc4C)n3n2)c1
  -13.6%, -21.8%
COc1cccc(CNC(=O)c2sc3nc[nH]c(=O)c3c2C)c1
  ?, -2.3%
COc1ccc(NC(=O)CCNS(=O)(=O)c2ccc3c(c2)CCCC(=O)N3)cc1Cl
  -24.9%, -20.1%
Cc1ccc(NC(=O)CN2C(=O)CC(c3ccc(C)c(C)c3)=Nc3ccccc32)cc1
  0.9%, 1.0%
CC(C)N1[N]C(=C2C=c3cc(O)ccc3=N2)c2c(N)ncnc21
  ·, ?
COc1cc(OC)c(Nc2ncnc3onc(-c4cccc(Cl)c4)c23)cc1Cl
  -5.5%, -16.7%
CCOC(=O)c1cc(-c2ccc(C)cc2)n(CC(=O)NC2CCCCCC2)c1C
  ?, -9.5%
COc1ccc(NCc2cc3cc4c(cc3n(CC(=O)Nc3cc(C)ccc3C)c2=O)OCCO4)cc1
  ?, -6.1%
Cc1cc(C)n2nc(CNS(=O)(=O)c3ccc(F)cc3)nc2n1
  -31.2%, 13.1%
Cc1ccc(NC(=O)c2oc3ccccc3c2NC(=O)C2CCCCC2)cc1
  2.1%, -9.6%
Cc1cc(C)c(NC(=O)CSc2ccnc(=O)[nH]2)c(C)c1
  -5.1%, -6.7%
CCN(CC)S(=O)(=O)c1ccc2c(c1)c(=O)c(C(=O)N1CCN(c3ccccc3OC)CC1)cn2C
  -12.0%, -2.9%
Cc1cc(C)cc(NS(=O)(=O)c2ccc3[nH]cc(C(=O)N4CCCCC4)c(=O)c3c2)c1
  -1.6%, 0.0%
CC(=O)c1ccc(NC(=O)Cn2c3ncccc3c(=O)n2-c2ccc(C)cc2)cc1
  -10.3%, -24.6%
Cc1cc(C)cc(NC(=O)CSc2oc(-c3ccco3)nc2S(=O)(=O)c2ccc(Cl)cc2)c1
  ?, ?
COc1cccc(-c2nnc3n(Cc4ccc(C)cc4)c(=O)c4ccccc4n23)c1O
  ?, ?
CCc1cccc(NC(=O)c2nc(-c3ccncc3)no2)c1
  -6.3%, -11.7%
Cc1ccc2c(c1)cc1c(=O)n(Cc3ccc(Cl)cc3)nc(C)n12
  -5.6%, 15.6%
CCN1CCN(c2c(S(=O)(=O)c3ccc(C)c(C)c3)cnc3ccc(F)cc23)CC1
  ?, -18.7%
Cc1cccc(NC(=O)c2ccc(F)c(S(=O)(=O)N3CCN(c4ccc(F)cc4)CC3)c2)c1
  1.7%, ?
CCOC(=O)c1c(S(=O)(=O)N2CCCC(C(=O)N3CCN(c4cccc(C)c4C)CC3)C2)c(C)n(C)c1C (centres undefined)
  17µM*, ?
CCOc1ccccc1C(=O)Nc1ccc(S(=O)(=O)N(Cc2ccccc2)c2ccccc2)cc1
  -17.9%, -11.3%
O=C(Nc1nnc(S(=O)(=O)N2CCCC2)s1)c1ccccc1F
  15.8%, 19.2%
COc1cc(C(=O)OCc2cc(=O)n3ccsc3n2)cc(OC)c1OC
  ?, ?
CC(C)c1ccc(NC(=O)C2CCCN(S(=O)(=O)c3cccc4nsnc34)C2)cc1 (centres undefined)
  ?, ?
CC(C)c1ccc(N2C(=O)CSC23C(=O)N(Cc2cccc(F)c2)c2ccccc23)cc1 (centres undefined)
  ?, -25.3%
Cc1ccc(OCC(=O)Nc2nonc2-c2ccc(C)c(C)c2)cc1C
  -11.6%, -2.1%
CN(Cc1ccc(F)cc1)S(=O)(=O)c1nnc(NC(=O)c2ccc(F)cc2)s1
  -62.3%, ?
CCCC(=O)N1CCc2cc(OC)c(OC)cc2C1COc1ccc(C(=O)OC)cc1 (centres undefined)
  -8.0%, ?
COc1cc(C(=O)Nc2cc(C)c(O)c(-c3nc4cc(Cl)ccc4o3)c2)cc(OC)c1OC
  0.2%, -10.8%
CCOC(=O)c1c(NC(=O)/C=C/c2ccc(Cl)cc2)sc2c1CCC(C)C2 (centres undefined)
  -1.4%, -6.1%
O=C(CSc1ccc(-c2ccccn2)nn1)Nc1ccc(F)c(F)c1
  -76.7%, ?
COc1ccc(NC(=O)c2c(NC(=O)C(F)(F)F)sc3c2CCCCC3)cc1
  -21.9%, -1.9%
COc1ccc2c(c1)CCc1c(C(=O)Nc3c(C)nn(Cc4ccccc4C)c3C)noc1-2
  ?, ?
COc1cccc(-n2c(=O)c3sc4ccccc4c3n(CC(=O)Nc3ccccc3OC)c2=O)c1
  ?, -18.4%
CCCCc1cc2ccccc2c(OCCN(C)C)n1
  ·, -8.6%
CCCCCCNc1ncnc2c1sc1nc(N3CCOCC3)c3c(c12)CCCC3
  -12.5%, -5.0%
COc1cccc(-n2ccnc2SCC(=O)Nc2nc3ccc(C)cc3s2)c1
  ?, ?
O=C(Cn1cc(SCc2ccc(C(F)(F)F)cc2)c2ccccc21)N1CCCC1
  ?, -14.9%
O=C(Nc1cccc(NC(=O)c2ccccc2F)c1)c1ccccc1
  0.1%, 12.1%

# Other compounds
# Each structure is followed by: PMP22 txn prim, HTT prom inh
Cc1cccc(N2CCN(C(=O)c3ccc4c(c3)c(C)c(C)n4C)CC2C)c1 (centres undefined)
  1.2%, -1.5%
CCN(Cc1ccccc1)C(=O)Cn1c(=O)n(-c2ccc(Cl)cc2)c(=O)c2c(C)c(C(=O)N(C)C)sc21
  8.7%, 2.6%
Cc1ccc2c(=O)c(C(=O)c3ccccc3)cn(CC(=O)NCc3ccccc3)c2n1
  5.1%, 1.3%
CCOc1ccc(-c2nnc(SCC(=O)Nc3cc(F)ccc3F)o2)cc1
  -1.8%, -9.7%
O=C(Nc1ccc(OCc2cc(=O)n3ccccc3n2)cc1)c1ccccc1Cl
  2.6%, 18.0%
COc1ccc(NC(=O)c2nnn(Cc3ccccc3C)c2N)c(OC)c1
  -17.8%, -28.0%
COc1ccc(NC(=O)C2CCCN(C(=O)c3cnn(-c4ccccc4)c3-n3cccc3)C2)cc1 (centres undefined)
  -11.0%, ?
Cc1ccc(NC(=O)c2nc(S(C)(=O)=O)ncc2N(Cc2cccc(F)c2)Cc2ccco2)cc1C
  ?, -31.7%
CNS(=O)(=O)c1cn(CC(=O)Nc2ccc(C(C)=O)cc2)cc1S(=O)(=O)NC
  -31.3%, 20.0%
O=C(CSC1=Nc2ccccc2C2=NC(Cc3ccccc3)C(=O)N12)Nc1ccccc1 (centres undefined)
  -12.6%, -21.1%
CCN(C(=O)Cn1c(SCC(=O)NCc2ccccc2)nc2ccccc21)c1cccc(C)c1
  ?, ?
COc1cccc(CNC(=O)Cc2csc3ccccc23)c1OC
  -39.8%, 16.4%
COc1ccc(CNC(=O)c2cnc3sc(N4CCCC4)nn3c2=O)c(OC)c1
  -9.0%, 7.4%
O=C(NCc1noc2ccccc12)N1CCN(c2ccccc2F)CC1
  4.5%, -4.7%
CCOc1ccc(-c2cn3c(n2)sc2cc(C(=O)NCCc4ccc(OC)c(OC)c4)ccc23)cc1
  9.7%, -1.9%
COc1ccc(-c2nc(SCC(=O)Nc3ccc4c(c3)OCCO4)c(-c3ccc(F)cc3)[nH]2)cc1OC
  -1.6%, -16.4%
Cc1nn2c(=O)cc(COC(=O)COc3ccc(F)cc3)nc2s1
  3.9%, -6.7%
CCOc1ccccc1NC(=O)CSc1nccn1-c1ccc(Cl)cc1
  ?, ?
CC(=O)c1cccc(NC(=O)Cn2c(C)c3cnn(-c4ccccc4)c(=O)c3c2C)c1
  ?, -26.6%
COc1ccc(C(CNC(=O)c2ccc(F)cc2)N2CCCC2)cc1 (centres undefined)
  -11.3%, 0.1%
COc1ccc(CCNc2ncnc3onc(C)c23)c(OC)c1
  4.01µM*, 1.26µM*
COc1ccc(N2CC(NC(=O)c3cc4ccccc4o3)CC2=O)cc1OC (centres undefined)
  13.5%, -20.1%
CCOc1ccc(C2Nc3c(C)cccc3-c3cc(C)nn32)cc1 (centres undefined)
  -22.4%, ?
C#CC(C)(CC)OC(=O)c1ccccc1C(=O)O (centres undefined)
  ·, 11.0%
CCOc1ccc(-c2nonc2NC(=O)c2oc3cc(Br)ccc3c2C)cc1
  9.46µM*, ?
Cc1nn(CC(=O)NCc2ccccc2Cl)c(=O)c2nn(-c3ccccc3)c(C)c12
  4.0%, 3.8%
Cc1ccc(N2C(=O)N(CC(=O)C(C)(C)C)c3ccccc3S2(=O)=O)cc1C
  -2.1%, ?
Cn1cncc1[C@@](N)(c1ccc(Cl)cc1)c1ccc2c(c1)c(-c1cccc(Cl)c1)cc(=O)n2C
  ·, -28.7%
CCOc1ccc(NC(=O)C2CCCN(S(=O)(=O)c3c(C)noc3/C=C/N(C)C)C2)cc1 (centres undefined)
  6.6%, -28.1%
Cc1ccc(NC(=O)CN(C)S(=O)(=O)c2ccc3c(c2)n(C)c(=O)c(=O)n3C)cc1F
  -11.6%, -7.8%
CCOC(=O)c1ccccc1NC(=O)CSc1nccn1Cc1ccco1
  30.0%, -5.7%
Cc1oc2c(c(C)cc3oc(=O)c(CC(=O)NCc4ccc(F)cc4)c(C)c32)c1C
  -18.5%, -0.8%
COc1ccc(CCNC(=O)c2ccc(-n3c(C)cc4c3CCC(C)C4)cc2)cc1OC (centres undefined)
  ?, 4.8%
CCn1c(SCC(=O)c2ccccc2)nnc1-c1cccc(Cl)c1
  -9.7%, 0.8%
CCc1ccccc1NC(=O)CSc1nc(C)c(C(=O)Nc2ccccc2)c(-c2ccc(Cl)cc2)c1C#N
  -6.7%, -38.9%
Cc1ccc(O)c(-c2n[nH]c3c2C(c2ccc(F)cc2)N(Cc2ccco2)C3=O)c1 (centres undefined)
  20µM*, ?
Cc1ccc(NC(=O)Cn2c(=O)n(CCc3ccccc3)c(=O)c3c4c(sc32)CCCC4)cc1C
  -4.5%, -0.9%

# Compound profiles (already shown).
# Cc1ccc(O)c(-c2n[nH]c3c2C(c2ccc(F)cc2)N(Cc2ccco2)C3=O)c1 (centres undefined) across the screens: PMP22 txn prim: 20µM*; HTT prom inh: ?
# COc1ccc(CCNC(=O)c2ccc(-n3c(C)cc4c3CCC(C)C4)cc2)cc1OC (centres undefined) across the screens: PMP22 txn prim: ?; HTT prom inh: 4.8%
# Cc1ccc(NC(=O)Cn2c(=O)n(CCc3ccccc3)c(=O)c3c4c(sc32)CCCC4)cc1C across the screens: PMP22 txn prim: -4.5%; HTT prom inh: -0.9%
